Screens (PubChem BioAssay)
nsP2pro inh: blocks chikungunya virus nsP2 protease peptide cleavage; FRET peptide cleavage, nsP2pro, fluorescence 1 h; Q8JUX6; Potency, µM (doses to about 24.9 µM), without a hit: at the highest dose activity change, negative = inhibition, most hits filed as inhibitors; 31,000 tested, 1.1% active; active means well fitted inhibition curve with a large enough effect; inconclusive means small, poorly fitted or top-dose-only effect; inactive means no such curve, though single readings can be large or run the other way; also: nearly all actives have a fitted effect of over 60% in size; a reference inhibitor and vehicle were the controls
Starred values were filed as active, the others as inactive; i = inactive; ? = inconclusive; & = joins results of further samples; [ ] = another dose, or the depositor's remark. % is scaled to controls: 0 for no effect and ±100 for the full control effect; potency is read from the fitted curve at half-maximal effect. This is a subset (hit frequency here may not be typical).

SMILES	nsP2pro inh
Cc1cc(NS(=O)(=O)c2ccc(NC(=O)Cc3ccc(F)c(Cl)c3)cc2)no1	4.7%
NC(=O)CNC(=O)C1=C[C@@H](NC(=O)Cc2cccs2)[C@@H](O)[C@H](O)C1	-8.8%[39.2 µM]
COc1cccc(-c2ccc(CN3CCCC3C(=O)N3CCN(c4ncccn4)CC3)cc2)c1 (centres undefined)	i
Cc1noc(C)c1-c1cc2cc(CN(C)C)oc2c(N2CCOCC2)n1	i
Cc1ccc(-c2nc(C(=O)NCc3ccccc3Cl)c3n2CCCCC3)cc1	-28.0%
Nc1nc(C2CC(NC(=O)c3[nH]nc(N)c3-c3ccccc3)C2)cc(=O)[nH]1 (centres undefined)	-10.7%
CCC(=O)N1CCc2cc(Br)cc(S(=O)(=O)N3CCCC(C(=O)Nc4cc(C)ccc4OC)C3)c21 (centres undefined)	-6.2%
C/C(=C\CO)CC/C=C(\C)C(=O)O[C@@H]1O[C@H](CO)[C@@H](O)[C@H](O)[C@H]1O	2.1%
CC1(C)CC[C@]2(C(=O)O)CC[C@]3(C)C(=CCC4[C@@]5(C)CCC(O[C@@H]6OC[C@H](O)[C@H](O)[C@H]6O[C@@H]6O[C@H](CO)[C@@H](O)[C@H](O)[C@H]6O)[C@@](C)(CO)C5CC[C@]43C)[C@@H]2C1 (some centres undefined)	2.8%[10 µM]
Cc1ccc2c(c1)-c1onc(C(=O)N(C)c3cccc(C(F)(F)F)c3)c1CO2	-10.3%
COc1ccc(NS(=O)(=O)c2nnc(NC(=O)c3ccccc3F)s2)cc1	-3.8%
CCn1cc(CN2CCN(C(=O)c3cccs3)CC2)ccc1=O	-29.8%
c1ccc(CNc2nc(-c3ccccc3)no2)cc1	i
O=C(Cn1ncn2c(cc3ccccc32)c1=O)NCc1ccc(F)cc1	?
NS(=O)(=O)c1cc2c(cc1Cl)NC=NS2(=O)=O	4.1%
CCc1ccc(NC(=O)N(Cc2cn(CC)c3ccccc23)C2CCCCC2)cc1	-7.0%
C#C[C@]1(O)CC[C@H]2[C@@H]3CC[C@H]4Cc5nc6nc7ccccc7n6cc5C[C@]4(C)[C@H]3CC[C@@]21C	91.0%[activator]
Cc1ccc2nc(-c3cccs3)c(Nc3ccc4c(c3)OCCO4)n2c1	-13.3%
CC1CCC2(C(=O)O)CCC3(C)C(=CCC4C5(C)CCC(O)C(C)(C(=O)O)C5CCC43C)C2C1(C)O (centres undefined)	108.4%[activator][10 µM]
O=C(CSc1nc2c([nH]c3ccccc32)c(=O)n1-c1ccc(F)cc1)Nc1ccc2c(c1)OCO2	-18.3%
CC(Nc1ccc([S+](=O)([O-])Nc2nccs2)cc1)c1ccccc1 (centres undefined)	-5.1%
NC1=N[C@@](c2cccc(-c3cncnc3)c2)(c2ccnc(C(F)F)c2)c2cccc(F)c21	-4.1%
C=C1CCC2(C(=O)OC3OC(CO)C(O)C(O)C3O)CCC3(C)C(=CCC4C5(C)CCC(OC6OC(CO)C(OC7OC(C)C(O)C(O)C7O)C(OC7OCC(O)C(O)C7O)C6O)C(C)(C)C5CCC43C)C2C1 (centres undefined)	-2.2%[5.1 µM]
O=C(N[C@@H]1CN(c2ccncn2)C[C@H]1CO)C1CCCC1	2.1%
CCc1ccccc1NC(=O)C1CCN(S(=O)(=O)c2ccc3[nH]c(=O)ccc3c2)CC1	-17.3%
Cc1ccccc1Cn1c(SCc2ccc(C(=O)NC3CCCCC3)cc2)nc2ccncc21	28.9%
COc1cc(O)c2c(c1)C1(OC2=O)C(C)=CC(=O)C1O (centres undefined)	-20.1%
CCOC(=O)CSc1nc2sc3c(c2c(=O)n1Cc1ccccc1)CCC(C(C)(C)C)C3 (centres undefined)	-18.7%
O=C(CSc1nccn1Cc1ccc(F)cc1)Nc1ccc2c(c1)OCCO2	-19.3%
Cc1nc(C2CC23CCN(S(=O)(=O)c2cccc(F)c2)CC3)no1 (centres undefined)	-5.3%
COc1ccc(S(=O)(=O)N2CCN(S(=O)(=O)c3ccc(OC)cc3)CC2)cc1	0.9%&-6.5%
O=C(O)[C@@H]1CCCN1	-27.8%
CC(=O)NCCC(=O)N1CCC2(CC1)CC(NC(C)=O)c1ccccc12 (centres undefined)	-13.4%
CCOC(=O)c1c(N)sc2c1CCN(Cc1ccccc1)C2	-7.8%
CC(C)(C)C(=O)CN1C(=O)[C@H](NC(=O)Nc2cccc(C(=O)O)c2)CN(C2CCCCC2)c2ccccc21	-10.6%
CCN(CC)S(=O)(=O)c1ccc(-c2nc(C)ccc2OC)cc1	i
CCOc1ccc(C(=O)Nc2ccc(C(=O)OCc3cc(=O)n4ccsc4n3)cc2)cc1	-12.4%
CC(C)N=c1cc2n(-c3ccc(Cl)cc3)c3ccccc3nc-2cc1Nc1ccc(Cl)cc1	-7.4%
O=C(O)C(=O)c1cn(Cc2ccccc2)c2ccc(-c3ccc(OC(F)(F)F)cc3)cc12	85.2%[activator]
Cc1nccn1CC1CCc2c(c3ccccc3n2C)C1=O (centres undefined)	61.3%&19.1%[activator]
FC(F)(F)c1ccccc1-c1nc(NCc2ccc(-c3cccnc3)cc2)c2ccccc2n1	i
Cc1cc2c(s1)c1cnn(Cc3c(F)ccc(F)c3Cl)c(=O)c1n2C	-6.2%
COc1ccc(C(=O)N[C@@H]2CCOC[C@H]2Oc2ccccn2)c(F)c1F	i
COC(=O)[C@@H]1Cc2ncn(C(C)C)c2CN1S(=O)(=O)c1ccccc1	?
COc1ccc2c(c1)Oc1nc(-c3ccc(C)s3)nc(SCC(=O)Nc3cccc(C(=O)O)c3)c1C2	-0.5%
CCOc1ccccc1CNC(=O)CCCN1C(=O)COc2ccc(C)cc21	-20.7%
O=C(NC1CCCC1)N1CCCC(Cn2cnc3cccnc32)C1 (centres undefined)	1.7%
CCOCCn1nc(C)cc1C(=O)N[C@H]1[C@H]2CCO[C@H]2[C@@H]1N(C)C	1.2%
OC/C=C/c1ccc(O[C@@H]2O[C@H](CO)[C@@H](O)[C@H](O)[C@H]2O)cc1	-8.1%
N#Cc1ccccc1CCc1nc2ncc(Br)cc2[nH]1	i
Additional entries follow:
SMILES	nsP2pro inh
COc1ccc(NC(=O)Cc2csc(C)n2)cc1	-9.1%
S=C(NC1CCCCC1)N1CCC(c2cnc[nH]2)CC1	53.9%[activator]
COc1cccc(CNC(=O)CN2C(=O)N(c3cc(C)ccc3C)S(=O)(=O)c3ccccc32)c1OC	-17.7%
Cc1ccc(-n2c3c(c(=O)[nH]c2=O)C(NS(=O)(=O)c2ccc(C)cc2)(C(F)(F)F)C(=O)N3)cc1 (centres undefined)	-11.9%
O=C(OCC1CCCO1)c1ccc2c(c1)N(Cc1cccc(Cl)c1)C(=O)c1ccccc1S2(=O)=O (centres undefined)	-21.2%
COc1ccc(Cl)cc1NC(=O)c1cc(S(=O)(=O)N2CCC(C)CC2)cn1C	-5.6%
CN(CC1CCCO1)c1ncnc2ccc(-c3ccc4c(c3)OCO4)cc12 (centres undefined)	i
c1ccc(CCCN2CC[C@H](c3nc4ccccc4s3)C2)cc1	-11.5%[39.2 µM]
CNC(=O)[C@@H]1CN(C(=O)c2ccoc2C)C[C@H]1c1nc(C)no1	-10.2%
Cc1ccc(CNC(=O)C(=O)NCC(c2ccco2)S(=O)(=O)c2ccccc2)cc1 (centres undefined)	-11.5%
COc1cccc(C2CC(=O)N3CN(C4CCCCC4)CSC3=C2C#N)c1 (centres undefined)	-40.1%
C=C1CCC2[C@](C)(CCC[C@@]2(C)C=O)[C@H]1CC/C(C)=C/CO (some centres undefined)	14.8%
Cc1ccc(NS(=O)(=O)c2ccc3[nH]c(=O)[nH]c3c2)cc1C	-0.9%
CCc1ccc(-n2c(=O)c3sc4ccccc4c3n(CC(=O)N(CC)Cc3ccccc3)c2=O)cc1	-8.3%
CCC1C(=O)N(C)c2cnc(Nc3ccc(C(=O)NC4CCN(C)CC4)cc3OC)nc2N1C1CCCC1 (centres undefined)	146.9%[activator]
COc1ccc(NC(=O)Cn2c(=O)oc3cc(S(=O)(=O)N4CCCCC4C)ccc32)cc1 (centres undefined)	-12.3%
O=S(=O)(c1ccc(C(F)(F)F)cc1)N1CCN(S(=O)(=O)c2ccc3c(c2)OCCO3)CC1	-6.9%
O=C(Nc1nc(-c2ccccc2)cs1)c1ccccc1S(=O)(=O)Nc1nccs1	4.3%
Cc1ccc(S(=O)(=O)N2CCN(Cc3cc(=O)n4nc(-c5ccccc5Cl)sc4n3)CC2)cc1	-14.9%
O=C(Nc1ccc2ccccc2c1)Nc1cccc(-c2ccncc2)n1	-2.3%
CCC(C)/C=C(C)/C=C/C1=CC2=C(Cl)C(=O)C(C)(OC(C)=O)C(=O)C2=CN1CCCC(=O)O (centres undefined)	?
Cc1ccc(-c2ncc[nH]2)cc1NC(=O)c1ccc(OCc2ccccn2)cc1	29.7%
COc1ccc(Cl)cc1NC(=O)Nc1cc(C)nc2ccccc12	?
Cc1ccc(S(=O)(=O)N2CCN(C3CCN(CCC(C)C)C3=O)CC2)cc1F (centres undefined)	-0.6%
CN1CCN(C(=O)c2cncc(N[C@H]3C[C@@H]4OCC[C@H]34)n2)CC1	i
Fc1ccc(N2CCN(CCC3OCCc4ccccc43)CC2)cc1 (centres undefined)	?
COc1cc(-c2nc3n(n2)C(c2ccc(F)cc2)C(C(N)=O)=C(C)N3)cc(OC)c1OC (centres undefined)	-13.9%
CCOC(=O)c1c(S(=O)(=O)N2CCC(C(=O)Nc3cccc(C)n3)CC2)c(C)n(C)c1C	-19.0%
Cc1cc(C)nc(NC(=S)N2CCN(c3ncc(C(F)(F)F)cc3Cl)CC2)c1	-16.9%&-5.8%
O=C(c1cccs1)N1CC[C@H]2COC(=O)N2c2cc(F)ccc2C1	-15.2%[39.2 µM]

Exported as comma-separated lines: 2 of the compounds above
Molecule,nsP2pro inh
CCOC(=O)c1c(S(=O)(=O)N2CCC(C(=O)Nc3cccc(C)n3)CC2)c(C)n(C)c1C,-19.0%
Cc1cc(C)nc(NC(=S)N2CCN(c3ncc(C(F)(F)F)cc3Cl)CC2)c1,-16.9%&-5.8%

Next part:
SMILES	nsP2pro inh
Cn1c(SCC(=O)c2cc3ccccc3o2)nnc1-c1ccccc1	i
OC1(CN2CCC(c3nc(-c4ccccc4)no3)CC2)CNCCOC1 (centres undefined)	0.3%
O=C(CCc1ccccc1)Nc1ccc(S(=O)(=O)Nc2nccs2)cc1	i
O=S(=O)(c1ccc(-c2cnc(C3CC3)o2)cc1)N1CCN(c2ccccc2)CC1	-15.6%
O=C(O)Cc1cccc2ccccc12	-19.3%&13.8%
COc1ccc(-c2cc(-c3nc(-c4cc(OC)c(OC)c(OC)c4)no3)[nH]n2)c(OC)c1	-16.7%
Cc1nc(C2CC(O)C2)cc(N2CCN(C(=O)c3cccs3)CC2)n1 (centres undefined)	-3.0%
O=C(OCc1cccc(O)c1O[C@@H]1O[C@H](CO)[C@@H](O)[C@H](O)[C@H]1O)C1(O)C(=O)C2C=CC1C1C=CC(=O)C(O)(C(=O)OCc3cccc(O)c3O[C@@H]3O[C@H](CO)[C@@H](O)[C@H](O)[C@H]3O)C21 (some centres undefined)	2.0%[5.1 µM]
CC1(C)CCC2(C(=O)OC3OC(COC4OC(CO)C(O)C(O)C4O)C(O)C(O)C3O)CCC3(C)C(=CCC4C5(C)CCC(OC6OCC(O)C(O)C6O)C(C)(C)C5CCC43C)C2C1O (centres undefined)	3.2%[5.1 µM]
COCCNc1nc(C)nc2c1nc(-c1ccccc1)n2CCN1CCCCC1	1.1%
CN(Cc1ccccc1)c1ncnc2c1CCN(C(=O)[C@@H](N)CO)CC2	3.8%
COc1c2c(cc3c1-c1c(cc4c(c1OC)OCO4)CC(C)C(C)C3)OCO2 (centres undefined)	-12.8%
COc1cc(N2C(=O)c3ccccc3C2=O)c2ncccc2c1	i
COc1ccc(C2c3c(ncn(CCN4CCOCC4)c3=N)Oc3ccc4ccccc4c32)cc1OC (centres undefined)	3.9%
NC(=O)[C@@H]1CCCN1C(=O)c1ccc2oc(-c3cccc(F)c3)nc2c1	1.2%
CC(O)c1ccc(-c2ccc3ncnc(NCCc4cnc[nH]4)c3c2)o1 (centres undefined)	i
CCC(=O)O[C@]1(C(=O)CCl)[C@@H](C)C[C@H]2[C@@H]3CCC4=CC(=O)C=C[C@]4(C)[C@@]3(F)[C@@H](O)C[C@@]21C	5.0%
C=C1C(=O)O[C@H](CCC)[C@H]1C(=O)O	-6.5%
COc1ccc(NC(=O)Cn2cnc3ccc(S(=O)(=O)N4CCC(C)CC4)cc3c2=O)cc1Cl	-19.3%
Cc1noc(NS(=O)(=O)c2ccc(NC(=O)COc3ccccc3Br)cc2)c1C	-15.5%

In the list so far, these contain a CF3 group.
SMILES	nsP2pro inh
Cc1ccc2c(c1)-c1onc(C(=O)N(C)c3cccc(C(F)(F)F)c3)c1CO2	-10.3%
O=C(O)C(=O)c1cn(Cc2ccccc2)c2ccc(-c3ccc(OC(F)(F)F)cc3)cc12	85.2%[activator]
FC(F)(F)c1ccccc1-c1nc(NCc2ccc(-c3cccnc3)cc2)c2ccccc2n1	i
Cc1ccc(-n2c3c(c(=O)[nH]c2=O)C(NS(=O)(=O)c2ccc(C)cc2)(C(F)(F)F)C(=O)N3)cc1 (centres undefined)	-11.9%
O=S(=O)(c1ccc(C(F)(F)F)cc1)N1CCN(S(=O)(=O)c2ccc3c(c2)OCCO3)CC1	-6.9%
Cc1cc(C)nc(NC(=S)N2CCN(c3ncc(C(F)(F)F)cc3Cl)CC2)c1	-16.9%&-5.8%

(further entries)
SMILES	nsP2pro inh
CCOC(=O)C1CCN(C(=O)c2cn3ccnc(-c4ccc(C)cc4)c3n2)CC1	2.3%
Cn1ccc2cc(S(=O)(=O)N3CCCN(C(=O)Nc4ccc(Br)cc4)CC3)ccc21	-18.9%
CC(=O)N1CCCCN(C(=O)c2cc(-c3ccccc3C(F)(F)F)nc3c2cnn3C)C1	0.4%
Cc1ccc(C)c(CN2C(=O)C(=O)c3ccccc32)c1	-17.3%
